Assay outcomes: PubChem BioAssay, ICCB-Longwood Screening Facility, Harvard Medical School
Mtb MbtI inh – MbtI salicylate synthase inhibitors, primary screen, biochemical, fluorescence intensity; purified MbtI enzyme, fluorescence intensity read-out; AID 493033, 2011; actives 0.89% (n = 100,000); inhibition, %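 (about 17 µg/mL by stock and volumes)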; P9WFX0;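 active = above 50% in both replicates, above 80% if mildly self-fluorescent; inactive = the rest, strongly fluorescent compounds included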;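 note: 0% = mean of negative and 100% = mean of positive controls; one replicate is shown; some compounds called inactive have numbers as strong as hits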
MenB inh – M. tuberculosis MenB inhibitors, primary screen, biochemical, absorbance; 1,4-dihydroxy-2-naphthoyl-CoA synthase (Mycobacterium tuberculosis (strain ATCC 25618 / …; MenB enzyme assay, absorbance read-out; some hits fall short of the stated cut; inhibition, %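 (about 12 µg/mL by stock and volumes)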; actives 0.43% (n = 100,000);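 active = mean of two replicates above 30%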;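 note: 0% = no compound and 100% = wells with inactive enzyme; the first replicate is given; strong numbers were not always called active; inactives centre near -10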
Target sequence (P9WNP5 whole entry, looked up): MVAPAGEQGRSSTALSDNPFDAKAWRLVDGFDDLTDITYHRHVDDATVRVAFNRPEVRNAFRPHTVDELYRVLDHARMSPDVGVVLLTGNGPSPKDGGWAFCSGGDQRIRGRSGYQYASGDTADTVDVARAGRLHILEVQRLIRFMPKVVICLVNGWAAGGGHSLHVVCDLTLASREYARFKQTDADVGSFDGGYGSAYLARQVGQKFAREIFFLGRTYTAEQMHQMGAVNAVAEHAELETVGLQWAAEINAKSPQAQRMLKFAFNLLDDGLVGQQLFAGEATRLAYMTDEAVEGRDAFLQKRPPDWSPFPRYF
PV pol inh – poliovirus RdRp elongation inhibitors, primary screen, biochemical, fluorescence polarization, total intensity | poliovirus polymerase elongation; stronger effect = lower value | % elongation, % (compound at 16.7 µg/mL) | actives 0.66% (n = 150,000); in the data active = % elongation below about 90%; note: some results filed as inactive read as strong as hits
Target sequence (P03300 1749-2209 limits assumed): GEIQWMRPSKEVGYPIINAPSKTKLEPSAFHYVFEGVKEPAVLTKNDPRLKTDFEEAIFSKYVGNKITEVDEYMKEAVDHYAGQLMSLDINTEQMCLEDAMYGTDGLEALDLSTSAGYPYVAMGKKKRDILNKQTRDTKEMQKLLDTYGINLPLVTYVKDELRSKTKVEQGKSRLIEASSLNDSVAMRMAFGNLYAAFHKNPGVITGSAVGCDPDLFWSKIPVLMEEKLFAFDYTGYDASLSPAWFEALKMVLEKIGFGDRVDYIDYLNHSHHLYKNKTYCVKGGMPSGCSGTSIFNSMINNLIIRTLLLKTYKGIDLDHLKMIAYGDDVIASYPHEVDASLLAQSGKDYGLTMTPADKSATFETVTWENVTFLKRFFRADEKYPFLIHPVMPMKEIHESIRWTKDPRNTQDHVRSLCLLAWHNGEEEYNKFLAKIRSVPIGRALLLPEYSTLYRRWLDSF
PV pol inh intensity – also measured in PV pol inh; calls as there; % elongation; measured here: total intensity read-out; formula for this scale not given here;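 total fluorescence in place of polarization; lower means less elongation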
Starred values were filed as active, the others as inactive; . = not tested or not shown; & = joins results of further samples.

SMILES | Mtb MbtI inh | MenB inh | PV pol inh | PV pol inh intensity
Cc1nc(N)sc1N=Nc1ccccc1C(F)(F)F | 2 | -101 | 98 | 93
Cc1c(Cc2ccccc2)c(=O)oc2cc(OCc3ccc(C(=O)O)cc3)ccc12 | -7 | 0 | 103 | 109
Cc1ccc(-c2cc(C(=O)N3CCCCC3C)[nH]n2)cc1C (stereo unspecified) | 13 | 7 | 103 | 100
C=CCN1CC2(c3ccccc3)CN(CC=C)CC(c3ccccc3)(C1)C2=O | -3 | -16 | 104 | 102
C=CCn1c(C)cc(C(=O)CN2NS(=O)(=O)c3ccccc3C2=O)c1C | -26 | 6 | 102 | 99
CC(C)c1ccc2[nH]c3c(c2c1)CCC/C3=N\O | 72 | -18 | 101 | 98
CSc1nc(C)c(C)c(=O)[nH]1 | -4 | -6 | 104 | 103
Cc1oc(C(C)(C)C)cc1C(=O)NC(Cc1ccccc1)C(=O)O (stereo unspecified) | -3 | -315 | 101 | 102
Cc1ccc(C(=O)N/C(=C/c2ccccc2)C(=O)NCc2ccco2)cc1 | -22 | 46* | 102 | 102
O=C1c2ccccc2NC(c2ccccc2)N1N=C1CCCCCC1 (stereo unspecified) | -7 | -20 | 106 | 109
CCC(Oc1ccccc1)C(=O)N1CCCCC1C (stereo unspecified) | 17 | -6 | 105 | 102
Cc1ccc(NC2OC(CO)C(O)C2O)cc1C (stereo unspecified) | . | -62 | 127 | 140
CS(=O)(=O)N(CC(=O)O)C1CCCCC1 | -12 | -25 | 100 | 99
CCCCn1c(SCC(=O)N2CCCCCC2)nnc1-c1ccoc1C | -11 | -25 | 100 | 101
CSc1nnc(-c2ccccc2N)c(=O)[nH]1 | 10&11 | -6&-53 | 100&104 | 98&100
Cc1ccc2c(=O)c(C(=O)NC3CCCC3)c[nH]c2c1 | -3 | 8 | 101 | 103
CCCNC(=O)c1[nH]c2ccccc2c1Sc1ccc(C)cc1 | 8 | 5 | 100 | 103
COC(=O)N1CCN(c2nc(-c3ccccc3)cs2)CC1 | . | -18 | 112 | 111
O=S(=O)(c1ccc2nc(CO)[nH]c2c1)c1ccc2nc(CO)[nH]c2c1 | -2 | -7 | 101 | 103
CC(C)N1CC23C=CC(O2)C(C(=O)O)C3C1=O (stereo unspecified) | -1 | 3 | 103 | 104
CC(C)(C)NC(=S)NCc1ccccc1 | . | -19 | 98 | 108
Nc1n[nH]c(=S)n1Cc1ccccc1 | 6 | -3 | 101 | 102
CC1CCCC(C)N1NC(=S)NC1CCCCC1 (stereo unspecified) | 1 | -7 | 102 | 103
Cc1cc2c(cc1S(=O)(=O)N1CCN(C3CCCCC3)CC1)n(C)c(=O)c(=O)n2C | -22 | -5 | 102 | 103
CSc1ncnc2sc(C)cc12 | -4 | 2 | 101 | 101

16 entries already listed, sorted by count of non-hydrogen atoms, highest first.
SMILES | Mtb MbtI inh | MenB inh | PV pol inh | PV pol inh intensity
Cc1cc2c(cc1S(=O)(=O)N1CCN(C3CCCCC3)CC1)n(C)c(=O)c(=O)n2C | -22 | -5 | 102 | 103
C=CCN1CC2(c3ccccc3)CN(CC=C)CC(c3ccccc3)(C1)C2=O | -3 | -16 | 104 | 102
Cc1ccc(C(=O)N/C(=C/c2ccccc2)C(=O)NCc2ccco2)cc1 | -22 | 46* | 102 | 102
C=CCn1c(C)cc(C(=O)CN2NS(=O)(=O)c3ccccc3C2=O)c1C | -26 | 6 | 102 | 99
O=C1c2ccccc2NC(c2ccccc2)N1N=C1CCCCCC1 (stereo unspecified) | -7 | -20 | 106 | 109
Cc1oc(C(C)(C)C)cc1C(=O)NC(Cc1ccccc1)C(=O)O (stereo unspecified) | -3 | -315 | 101 | 102
CCCNC(=O)c1[nH]c2ccccc2c1Sc1ccc(C)cc1 | 8 | 5 | 100 | 103
Cc1ccc(-c2cc(C(=O)N3CCCCC3C)[nH]n2)cc1C (stereo unspecified) | 13 | 7 | 103 | 100
Cc1ccc2c(=O)c(C(=O)NC3CCCC3)c[nH]c2c1 | -3 | 8 | 101 | 103
Cc1nc(N)sc1N=Nc1ccccc1C(F)(F)F | 2 | -101 | 98 | 93
CC1CCCC(C)N1NC(=S)NC1CCCCC1 (stereo unspecified) | 1 | -7 | 102 | 103
CC(C)N1CC23C=CC(O2)C(C(=O)O)C3C1=O (stereo unspecified) | -1 | 3 | 103 | 104
CSc1nnc(-c2ccccc2N)c(=O)[nH]1 | 10&11 | -6&-53 | 100&104 | 98&100
CS(=O)(=O)N(CC(=O)O)C1CCCCC1 | -12 | -25 | 100 | 99
CSc1ncnc2sc(C)cc12 | -4 | 2 | 101 | 101
CSc1nc(C)c(C)c(=O)[nH]1 | -4 | -6 | 104 | 103

The list continues.
SMILES | Mtb MbtI inh | MenB inh | PV pol inh | PV pol inh intensity
CC1(C)CC(C)(c2ccccc2)c2cc(SC#N)ccc2N1 (stereo unspecified) | . | -9 | 103 | 109
N#Cc1cc2c(nc1SCC(=O)Nc1ccc(S(=O)(=O)Nc3nccs3)cc1)CCCC2 | 4 | -31 | 102 | 99
C[N+]1(C)CCCC(OC(=O)C(O)(c2ccccc2)c2ccccc2)C1 (stereo unspecified) | -8&-6 | 5&-3 | 102&100 | 101&100
Clc1cc(Cl)c(OCCCCn2cncn2)c(Cl)c1 | -4 | -14 | 99 | 103
C=CCn1c(=O)n(CC=C)c(=O)n(Cc2ccc(Cl)cc2)c1=O | 32 | -5 | 101 | 98
O=C1N=c2ccccc2=C1c1sc(NS(=O)(=O)c2ccccc2)nc1O | -1 | -174 | 104 | 97
CC(C)C(=O)NS(=O)(=O)c1ccc(NC(=O)c2ccco2)cc1 | 2 | -61 | 103 | 104
CC1Cc2ccccc2N1C(=S)NC(=O)c1ccco1 (stereo unspecified) | 46 | 3 | 98 | 104
CC1CN(CCC(C)c2ccccc2)CC(C)O1 (stereo unspecified) | -21 | 2 | 99 | 102
Cc1ccc2c(cnn2C(=O)CCCC(=O)N2CCN(c3ccccc3)CC2)c1 | 6 | -28 | 104 | 102
c1ccc(CSc2ncnc3nc[nH]c23)cc1 | 13 | 7 | 101 | 101
Cc1nn(-c2ccccc2)cc1/C=N/NS(=O)(=O)c1ccccc1 | 14 | -8 | 102 | 108
N#CCCN=Nc1c(O)n(CO)c2ccccc12 | 17 | -44 | 99 | 95
N#CCC(=O)NCC1CCCO1 (stereo unspecified) | -3 | . | 101 | 104
Cc1cc2c(cc1Br)NC(=O)/C2=N\N1C(=O)c2ccccc2C1=O | 3 | -3 | 99 | 102
CCN(C(=O)c1ccc2c(SCC(=O)O)c3c(nc2c1)CCC3)c1cc(Cl)ccc1OC | 0 | -23 | 102 | 107
COc1cc(NC(=O)c2ccco2)c(OC)cc1NC(=O)CSc1ncc(-c2ccc(F)cc2)[nH]1 | 0 | -66 | 105 | 102
O=C(C1=CC=CN2CCS(=O)(=O)N=C12)N1CCN(c2ccccn2)CC1 | 5 | -9 | 100 | 103
Cc1ccc(C(=O)Nc2c(C(C)(C)C)nn(C)c2C(C)(C)C)cc1 | 6 | -1 | 104 | 96
COCc1cc(C)nc2sc(C(=O)N(C)c3ccccc3)c(N)c12 | 1 | 21 | 101 | 104
COc1ccc(C2CC(=O)Nc3cc(OC)c(OC)cc32)cc1 (stereo unspecified) | -3 | -33 | 102 | 103
CCn1c(=NC(=O)c2ccc(Cl)s2)sc2ccccc21 | 30 | -28 | 101 | 109
O=S(=O)(NCc1ccccc1)c1cccs1 | -17 | -21 | 105 | 100
O=S(=O)(c1ccc(F)cc1)N(Cc1ccc2c(c1)OCO2)c1ccc(F)cc1 | -5 | -6 | 100 | 107
Cc1cc(C)nc(SCC(=O)OCC(=O)Nc2ccc3c(c2)CCC3)n1 | 3 | -8 | 102 | 97

Other records follow.
SMILES | Mtb MbtI inh | MenB inh | PV pol inh | PV pol inh intensity
O=C(Nc1cccc(Br)c1)N1CCCC(CN2CCc3ccccc3C2)C1 (stereo unspecified) | -11 | -19 | 103 | 107
Cn1c(O)c(N=Nc2ccc(S(=O)(=O)N3CCOCC3)cc2)c(=O)n(C)c1=O | 7 | -130 | 104 | 98
COCCn1ccc2nc(C)c(C(=O)NCCC(C)C)cc2c1=O | 116 | 3 | 99 | 102
O=S1(=O)C=CC2ON=C(c3c(Cl)cccc3Cl)C21 (stereo unspecified) | 2 | -12 | 102 | 105
CC(C)(C)c1ccc(C(=O)Nc2c3c(nn2-c2ccc(Cl)cc2)CSC3)cc1 | -4 | -40 | 101 | 99
O=C(O)CC(c1ccc(F)cc1)c1ccco1 (stereo unspecified) | 2 | 0 | 100 | 103
C=CCNc1nc(C(=O)OCc2ccc(C#N)cc2)cs1 | 0 | -4 | 109 | 109
COc1ccc(CNC2=CC(=O)CC(C)(C)C2)cc1 | 29 | 0 | 102 | 103
Cc1cc(C)cc(-n2c(C)cc(/C=C(\C#N)C(=O)Nc3ccccc3)c2C)c1 | 4 | -17 | 99 | 102
CCC(C)c1ccc(NC(N)=S)cc1 (stereo unspecified) | 14 | -17 | 107 | 113
O=C(Nc1c2c(nn1-c1ccccc1)CSC2)C1CCCCC1 | 15 | -6 | 99 | 98
Cc1ccc(C2/C(=C(\O)c3ccccc3)C(=O)C(=O)N2c2ccccn2)cc1 (stereo unspecified) | -6 | . | 99 | 99
O=S(=O)(NCc1ccccc1)c1cccc(Cl)c1 | 6 | 9 | 103 | 105
N#CCSc1nnc(-c2ccccc2)n1-c1ccccc1 | 2 | -53 | 101 | 101
CN1C2CCC1/C(=C\c1cccnc1)C(=O)/C2=C/c1cccnc1 | -1 | -12 | 101 | 102
Cc1cccc(-c2nnc(C3CCNCC3)o2)c1 | 78* | -34 | 102 | 101
O=C(Nc1cc(OCC(F)(F)F)cc(OCC(F)(F)C(F)F)c1)c1cccnc1 | -6 | -22 | 101 | 103
CC(C)(C)OC(=O)Nc1ccc2c(c1)OCO2 | -5 | 7 | 99 | 100
COc1ccc(C(=O)CSc2nc(-c3cccc(C)c3)ns2)cc1 | 30 | 1 | 98 | 103
CCOc1ccccc1-n1nnnc1SCC(=O)c1ccc[nH]1 | -6 | -28 | 104 | 106
Cc1cc(C(=O)Nn2cnnc2)cs1 | -13 | -28 | 103 | 102
CN(C)c1ccc(NC(=O)CC2CCCCC2)cc1 | -1 | . | 103 | 106
COc1cccc(C(=O)N2CCN(C(c3ccccc3)c3ccccc3)CC2)c1OC | -10 | 3 | 99 | 102
O=S1(=O)N=CN(Cc2ccccc2)c2ccccc21 | -6 | -28 | 107 | 107
CC(C)CC(NC(=O)C1CCC(C)CC1)C(=O)Nc1ccc2c(c1)OCCO2 (stereo unspecified) | -5 | 8 | 98 | 103

Remaining list, next part
SMILES | Mtb MbtI inh | MenB inh | PV pol inh | PV pol inh intensity
CC(C)Cc1cc(C(=O)Nc2cccc(O)c2)no1 | 3 | -26 | 102 | 99
O=C(CC1Nc2ccccc2NC1=O)Nc1ccccc1Cl (stereo unspecified) | . | -14 | 105 | 102
CC(C)(C)c1ccc(C(=O)N2CCN(C(=O)C3CCCCC3)CC2)cc1 | -4 | 16 | 102 | 100
Cc1ccc(-c2nn(-c3ccccc3)c3[nH]c(C)cc(=O)c23)cc1 | -104 | 11 | 93 | 96
COCCn1c(SCC(=O)N2CCCCC2C)nc2sc(C)c(C)c2c1=O (stereo unspecified) | 16 | -16 | 101 | 101
Cc1[nH]c(=O)n(C(C)(C)C)c(=O)c1Br | 2 | -18 | 102 | 109
CCc1ccc(OCC(=O)N2CC(C)OC(C)C2)cc1 (stereo unspecified) | -10 | . | 106 | 102
Cc1oc2c(c1C(=O)N1CCC(C)CC1)C(=O)c1ccccc1C2=O | -2 | -12 | 100 | 95
Cn1c(=O)c2c(-c3ccc(C(C)(C)C)cc3)n(-c3cc(N)c(Cl)cc3Cl)cc2n(C)c1=O | 7 | 6 | 106 | 102
O=C(CSCCN1C(=O)c2ccccc2C1=O)NCc1cccs1 | 19 | 13 | 107 | 96
CCCCN=Cc1c(O)[nH]c(=O)[nH]c1=O | 19 | 15 | 102 | 105
Fc1ccc(Nc2nc3ccccc3s2)cc1 | 4 | . | 103 | 99
Cc1csc(NC2=NCCCCC2)n1 | 4 | . | 105 | 107
CCOC(CNCc1ccco1)OCC | -8 | -21 | 105 | 107
O=C(COC(=O)c1n[nH]c(=O)c2ccccc12)NC1C2CC3CC(C2)CC1C3 (stereo unspecified) | 2 | -3 | 101 | 106
COC(=O)c1ccc(CO/N=C(\N)c2c(-c3c(Cl)cccc3Cl)noc2C)o1 | 7 | -11 | 101 | 103
CCOC(=O)c1ccc(N=Cc2ccc3ccccc3c2)cc1 | . | -8 | 102 | 102
CCOc1ccc(-n2c(O)c(C3=c4ccccc4=NC3=O)sc2=O)cc1 | -1 | 3 | 100 | 102
Clc1ccnc(-c2ccccc2)n1 | 14 | -23 | 99 | 102
O=C(COC(=O)C1CCCN1S(=O)(=O)c1cccc2nsnc12)c1ccco1 (stereo unspecified) | 6 | -33 | 100 | 87
CNC(=O)CSc1nnc(-c2ccccc2)n1C | -9 | 6 | 101 | 104
Cc1cc(SCC(=O)Nc2cccc(C#N)c2)nc2ccccc12 | -9 | -15 | 102 | 111
CC(C)CCNS(=O)(=O)c1ccccc1 | 21 | 11 | 103 | 100
Cc1ccc(S(=O)(=O)c2cn(Cc3cccc(Cl)c3)c3cc4c(cc3c2=O)OCO4)cc1 | 47 | -25 | 103 | 96
S=c1nc(-c2ccccc2)n(-c2ccccc2)[nH]1 | 3 | -31 | 100 | 108
